# NPYLR7 ag – agonists of mosquito NPYLR7 receptor, primary screen, cell-based, Aedes aegypti, calcium fluorescence, mosquito biting behavior; HEK293T NPYLR7/Galpha15, GCaMP6s calcium fluorescence; activation, % at 10 µM; 0.15% of 270,000 active; in the data active means activation above about 40%;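 further: 0% = vehicle and 100% = reference agonist at the receptor; some compounds past the cut are filed as inactive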
# NPYLR7 ag max-min – also measured in NPYLR7 ag; calls as there; activation, %; measured here: Max-Min RFU normalised activation; some inactives read as strong as hits;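 span of the calcium signal over five minutes; 0% = vehicle and 100% = native peptide agonist; compound fluorescence can raise it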
# * marks the source's active call; other numbers are inactive results; & = joins results of further samples. These rows are one share of the data; count on the stated rates, not on these rows.
# Order of results: NPYLR7 ag, NPYLR7 ag max-min
> CCNS(=O)(=O)c1cccc(C(=O)NC(C)(C)c2ccc3c(c2)OCCO3)c1
→ 0, 14
> COc1ccc(-c2cc(N)n(-c3ccc(C(=O)N[C@H](C)C(C)(C)C)cc3)n2)cc1
→ -9, -13
> CCN1CCCC(NC(=O)COc2nn(C)c3nc(C)cc(C)c23)C1 (stereo not given)
→ 4, 2
> CC(C)(C)C(=O)ON1C(=O)c2ccccc2C1=O
→ -3, 5
> CCCc1nc2sc3c(c2c(=O)n1NC(=O)c1ccc([N+](=O)[O-])cc1)CC(C)(C)OC3
→ 1, 1
> CCOC(=O)c1c(C)[nH]c(C(=O)N2CCC(O)(c3ccc(C)cn3)CC2)c1C
→ 7, 5
> CCCCNc1nc2c(c(=O)n(C)c(=O)n2C)c2oc(C)nc12
→ -1, -2
> CC1ON=C(c2ccccn2)N(Cc2ccccc2)C1=O (stereo not given)
→ 7, 3
> N#CCc1ccc(NC(=O)CN2C(=O)CCCc3ccccc32)cc1
→ -1, 1
> CCCC(=O)Nc1c(-c2ccc(OC)cc2)nc2cc(C)ccn12
→ -5, -3
> O=C1c2ccc([N+](=O)[O-])cc2C(=O)N1Cc1ccc(F)cc1
→ 13, 5
> N#Cc1ccccc1OCCCn1cnc2ccccc2c1=O
→ -7, 15
> O=c1c(N=Nc2c(Cl)cc([N+](=O)[O-])cc2Cl)c(-c2ccccc2)[nH]n1-c1ccccc1
→ 2, -4
> CC(C)c1ccc(CN(C)S(=O)(=O)c2ccc(Cl)c([N+](=O)[O-])c2)cc1
→ 2, -1
> COc1ccc(N2CCN(C3CCCN(Cc4cccn4-c4nccs4)C3)CC2)cc1 (stereo not given)
→ 12, 3
> COC(=O)c1cccc(CNC(=O)NCc2ccoc2C)c1
→ -4, 0
> COc1ccccc1OCCC(=O)NCc1cccc(N(C)C)c1
→ 7, 4
> Brc1cccc(-c2nnco2)c1
→ 7, 10
> CC1=CC[C@@H]2CN(C(=O)c3ccc4c(c3)N(C)C(=O)CO4)C[C@@H]2C1
→ -3, -3
> O=C(CSc1ncc(-c2ccc([N+](=O)[O-])cc2)[nH]1)NC(C(=O)O)(c1ccccc1)c1ccccc1
→ -4, -7
> CN(C)Cc1ccc(-c2ccc3nc[nH]c(=O)c3c2)cc1
→ 10, 5
> Cc1ccc(S(=O)(=O)N2CC(O)CC2C(=O)O)cc1C (stereo not given)
→ -1, -2
> COc1ccc(Cl)cc1NS(=O)(=O)c1cc(Cl)ccc1Cl
→ 10, 11
> CCN1C(=O)C(=Cc2c(NC(C)c3ccccc3)nc3c(C)cccn3c2=O)SC1=S (stereo not given)
→ 0, 14
> Cc1cccc(CSc2nnc(CNC(=O)c3cccc(Br)c3)n2-c2ccc([N+](=O)[O-])cc2)c1
→ 1, 9
> NC(=O)c1noc(CN2CCCC(CCc3ccccc3F)C2)n1 (stereo not given)
→ -3, -10
> O=C(CSc1nc(=O)[nH]c2c1CCCC2)c1ccccc1
→ 1, -3
> O=C(CC1CC2CCC1C2)Nc1nc(-c2ccc(Cl)s2)cs1 (stereo not given)
→ -2, -6
> CCc1nn(-c2nc3c(C)cccc3s2)c(N)c1C#N
→ 1, 13
> CCCN(C(=O)CN1CCC(=O)NC1=O)c1cccc2ccccc12
→ 1&7, 0&4

# Additional compounds
# Order of results: NPYLR7 ag, NPYLR7 ag max-min
> C(=Nc1nc2ccccc2s1)Nc1nc2ccccc2s1
→ 24, 24
> Cc1ccc(-c2ccc(OCCNS(=O)(=O)c3ccc(F)cc3)nn2)cc1
→ 1, -6
> CSc1cccc(C(=O)N(CCn2cccn2)c2nc3c(Cl)cccc3s2)c1
→ -17, -25
> O=C1C(C(c2ccc(F)cc2)N2CCCCC2)Sc2nc(-c3ccco3)nn21 (stereo not given)
→ 7, 6
> Cc1ccc(-c2ccc(=O)n(CCNC(=O)Nc3cccc(C)c3)n2)cc1
→ -6, -2
> COc1ccc(-n2nnc3c(N4CCN(C(=O)CCC5CCCC5)CC4)ncnc32)cc1
→ -5, -7
> O=C(Cn1nc(-c2ccccc2)c2sc(N3CCOCC3)nc2c1=O)c1ccc2c(c1)OCCO2
→ -5, -9
> N#Cc1cccc(NC(=O)Nc2nn(Cc3ccc(COc4ccc5c(c4)OCO5)cc3)c3ccc(C(F)(F)F)cc23)c1
→ 14, 13
> CC(=O)N1CCc2nc(C)nc(NCCCc3ccccn3)c2CC1
→ -3, -5
> CN1CCN(c2ccccc2NC(=O)c2cc(Cl)sc2Cl)CC1
→ 3, -1
> Cc1ccc(CN(C)C(=O)C(C)n2ccnc2C(C)C)o1 (stereo not given)
→ -7, -12
> Cc1ccc(-c2nc3cc(C)ccn3c2NC(=O)C(C)Cl)cc1 (stereo not given)
→ -4, 3
> Fc1ccccc1-c1cnn2c(NCc3ccc4c(c3)OCO4)ccnc12
→ -4, -8
> COC(=O)C1CCN(S(=O)(=O)c2ccc(Br)s2)CC1
→ 9, 11
> COCCN(CC(=O)N1CCc2sccc2C1COc1ccccc1F)C(=O)NC(C)C (stereo not given)
→ 9, 5
> COc1cccc(Cn2ccnc2CN(CC2CC2)C(=O)c2ccc(F)cc2)c1
→ 3, 10
> CCc1c(NC(=O)COC)n[nH]c1-c1ccc(Br)cc1
→ -2, 20
> Cc1ccncc1-c1cccc2ccnn12
→ 9, 5
> COCCN(Cc1ccccc1OS(=O)(=O)c1ccc(NC(C)=O)cc1)C(=O)c1cccc(F)c1
→ -2, 7
> O=C(Nc1ccc(N2CCCC2)c(C(=O)NCc2ccccc2)c1)Nc1ccccc1F
→ 8, 9
> C=CCc1cc(CN2CCCC2c2nc(C)no2)cc(OC)c1OC(C)C (stereo not given)
→ 0, -1
> CS(=O)(=O)N1CCC(C(=O)NCCn2ncc3c(N4CCCCCC4)ncnc32)CC1
→ -1, -2
> O=C1C(Cl)=C(NCc2ccccc2Cl)C(=O)N1C1CCCCC1
→ 2, -2
> COCCN(CC(=O)N(CCc1c[nH]c2ccccc12)Cc1ccc(OC)c(OC)c1)C(=O)C12CC3CC(CC(C3)C1)C2
→ 0, 10
> O=C(c1ccc(Cl)cc1)N1CCCC(C(=O)N2CCCC2c2cccs2)C1 (stereo not given)
→ -6, -7
> CCc1ccc(NC(=O)Nc2ccc(N3CCCC3)c(C(=O)NC(C)c3ccccc3)c2)cc1 (stereo not given)
→ 16, 12
> CC(C)CCNc1ncnc2c1nc1n2CCCCC1
→ 5, -1
> O=C(c1cc(F)ccc1F)C1CCCN(C(=O)Cc2ccc3c(c2)OCO3)C1 (stereo not given)
→ 9, 2
> COc1cccc(OCC2c3ccsc3CCN2C(=O)CN(CC2CC2)S(=O)(=O)c2ccc(C)cc2)c1 (stereo not given)
→ -1, 1
> COCCNc1cc(-c2cc(C)c(C)[nH]c2=O)c2cc[nH]c2n1
→ 4, -3

# Further structures.
# Order of results: NPYLR7 ag, NPYLR7 ag max-min
> CC(C)CCC(=O)Nc1ccc(S(=O)(=O)NC(C)C)cc1
→ -1, -5
> CN(CCCc1nccn1C)C1CCC2(CCNCC2)CC1
→ 10, 5
> COCCN(Cc1cccs1)CC(O)Cc1ccccc1 (stereo not given)
→ 5, 21
> CCCCCCCCSc1nc2ccccc2n1CCC(=O)O
→ -6, -10
> CCCN(CCC)C(=O)Cc1csc2nc(-c3ccc(OCC)cc3)cn12
→ 2, 0
> Oc1ccc([C@H]2COc3cc(O)ccc3C2)cc1
→ -9, -12
> c1ccc(Cc2nc3ccc4[nH]snc4c3n2)cc1
→ 16, 6
> COc1ccc(N2C(=O)CC(N(O)c3ccccc3)C2=O)cc1 (stereo not given)
→ 1, 1
> CC(=O)N1CCN(c2nccn2-c2ccccc2F)CC1
→ 2, 7
> Cc1nc(NC(=O)c2cc(-c3ccccc3)n(C3CCS(=O)(=O)C3)n2)sc1C (stereo not given)
→ 2, -1
> O=C(CSc1ccc(-c2ccncc2)nn1)N1CCc2ccccc21
→ 4, -4
> CN1CCCCC1CCNC(=O)c1ccc(-c2cccc3ncccc23)nc1 (stereo not given)
→ 3, 0
> O=C(O)c1cccnc1SC1CC(=O)N(C2CCCC2)C1=O (stereo not given)
→ 3, 2
> CCC1(CC)NC(=O)N(CCCC2CCCC2)C1=O
→ -1, -2
> Cc1occc1C(=O)NN=Cc1ccc[nH]1
→ -1, -6
> O=S(=O)(NCCc1cn(Cc2ccc(Cl)cc2)c2ccccc12)c1cccc(Cl)c1
→ -19, -21
> CN(C)C(=O)CNC(=O)C1CCN(S(=O)(=O)c2cccs2)CC1
→ 13, 7
> Cc1cc(C(=O)N(CC2CCN(C3CCCC3)CC2)CC2CCCO2)n[nH]1 (stereo not given)
→ 2, -1
> Cc1ncnc(N2CCC(C3CCN(CC(C)C)CC3)C2)c1C (stereo not given)
→ 2, 0
> COc1ccc(-c2csc(-c3nnn(-c4cccc(OC)c4)c3C)n2)cc1
→ 1, -4
> CCN1CCOC(CCNS(=O)(=O)c2cc3ccccc3o2)C1 (stereo not given)
→ 13, 7
> CNc1cccc(-c2cccc(NC(C)=O)c2)n1
→ 3, 0
> O=C(c1cn[nH]n1)N(Cc1ccncc1)CC1CCCO1 (stereo not given)
→ 2, 5
> CCOc1ncccc1-c1cc(N2CCOCC2)nc(N)n1
→ 8, 7
> O=C(c1cn[nH]c1-c1cccc(F)c1)N1CC[C@@H](N2CCOCC2)[C@H](O)C1
→ 1, -5
> CC(=O)Oc1cccc(C(=O)N2CCN(Cc3cc(=O)c(OCc4ccc(-c5ccccc5C#N)cc4)co3)CC2)c1C
→ 27, 20
> CSc1cccc(CNC(=O)Cc2csc(C(C)=O)c2)c1
→ -6, -13
> Cc1ncc(CN(C)CCOc2cccc(S(C)(=O)=O)c2)s1
→ -2, -2
> Cc1cccc2ncnc(N3CCOC(C)C3)c12 (stereo not given)
→ -1, -7
> Cc1nc(Cc2nnc(SCC(=O)c3ccc(Cl)s3)o2)cs1
→ 3, 3

# Single records, as listed above:
# `CCN1CCOC(CCNS(=O)(=O)c2cc3ccccc3o2)C1` (stereo not given) across the screens: NPYLR7 ag: 13; NPYLR7 ag max-min: 7
# `Cc1nc(Cc2nnc(SCC(=O)c3ccc(Cl)s3)o2)cs1` across the screens: NPYLR7 ag: 3; NPYLR7 ag max-min: 3
# `COc1ccc(N2C(=O)CC(N(O)c3ccccc3)C2=O)cc1` (stereo not given) across the screens: NPYLR7 ag: 1; NPYLR7 ag max-min: 1

# In the list so far, 2 contain a tert-butyl group.
# Order of results: NPYLR7 ag, NPYLR7 ag max-min
> COc1ccc(-c2cc(N)n(-c3ccc(C(=O)N[C@H](C)C(C)(C)C)cc3)n2)cc1
→ -9, -13
> CC(C)(C)C(=O)ON1C(=O)c2ccccc2C1=O
→ -3, 5

# (listing goes on)
# Order of results: NPYLR7 ag, NPYLR7 ag max-min
> COC(=O)c1nc(NC2=NCCCCC2)n[nH]1
→ -4, -5
> O=c1oc2ccc(Br)cc2cc1-c1nc2ccccc2[nH]1
→ 1, 0
> COc1ccccc1C(=O)N1CCC2(CC1)SCCN2C(=O)c1ccc(C(C)(C)C)cc1
→ 3, 16
> COc1cc(OC)cc(C(=O)NCCn2ncc3c(=O)n(Cc4ccccc4C)cnc32)c1
→ -7, -13
> CCS(=O)c1ccccc1C(=O)N1CCCC1 (stereo not given)
→ -1, -7
> COc1cc(C(=O)OC(C)C(N)=O)cc(Br)c1O (stereo not given)
→ -2, -2
> CC1=NC2=C(C(=O)CCC2)C(c2cccnc2)C1C(=O)OCCOc1ccccc1 (stereo not given)
→ -5, -11
> O=C(NCCN1CCn2cc(OCc3ccccc3)c(=O)cc2C1=O)c1ccccc1
→ 11, 2
> Cc1ccccc1N1CCN(c2ncccc2CNCc2cnc(C)n2C)CC1
→ 2, -1
> COc1cccc(C(CN2CCN(S(=O)(=O)c3c(C)nn(C)c3Cl)CC2)OCc2cccc(Cl)c2)c1 (stereo not given)
→ 29, 13
> CCOC(=O)C1=NOC2(CCN(S(C)(=O)=O)CC2)C1
→ 9, 2
> CCC(c1ccccn1)N(C)C(=O)Cc1cc(C)no1 (stereo not given)
→ 14, 14
> CCNCCN1C(=O)CSC1c1cccc(C)c1 (stereo not given)
→ 0, -6
> O=C1NCCN(CC(c2ccccc2)c2ccccc2)C1CC(=O)N1CCSCC1 (stereo not given)
→ 7, 7
> COc1ccc(/C=C/C(=O)NCCc2csc3nc(-c4cccc(C)c4)nn23)cc1OC
→ 5, 1
> N#CC(=Cc1cccc(O)c1)c1nc(-c2ccc(F)cc2)cs1
→ -4, -5
> COc1cccc(C2CC(c3cccc(C)c3)=NN2C(=O)CN2CCN(c3ccccc3F)CC2)c1 (stereo not given)
→ 24, 22
> O=C(c1ccccc1)N1CCOC(COCc2ccccc2)C1 (stereo not given)
→ -13, -14
> CCOC(=O)c1c(NC(=O)CSc2nnc(C)s2)oc(C)c1C(C)=O
→ -2, -2
> COC(=O)c1ccc(-c2noc(CN3CCN(c4ccc(Cl)cn4)CC3)n2)cc1
→ 16, 6
> COc1ccc2c(c1)C1(SCCN1C(=O)c1ccccc1F)C(=O)N2Cc1cccc(C#N)c1 (stereo not given)
→ 7, 8
> CCCN(CC(F)F)C(=O)c1cnc2ccccc2c1OC
→ 6, 0
> COc1ccccc1-c1noc2nc(OCc3ccccc3)ccc12
→ 1, -2
> Cc1noc(C)c1NC(=O)NCc1ccc2[nH]c3c(c2c1)CCCC3
→ 4, 1
> COc1ccc(CN2CCC2(C)C(=O)Nc2ccc(C)c(O)c2)c2ccccc12 (stereo not given)
→ 1, -4
> COc1ccc(-c2ccccc2NC(=O)C2CCCN2C(=O)c2cscn2)cc1 (stereo not given)
→ 1, -2
> c1cnn(-c2ccc(CN3CCCC4CCCCC43)cc2)c1 (stereo not given)
→ 1, -1
> O=C(c1ccccc1-c1nn[nH]n1)N1CCCC(CCc2ccccc2F)C1 (stereo not given)
→ -3, -3
> CC1=NC2=C(C(=O)CC(C)(C)C2)C(c2cccc([N+](=O)[O-])c2)C1C#N (stereo not given)
→ 18, 14

# Screening data as filed in PubChem BioAssay.
